Vaccinia inh: blocks a specific stage of Vaccinia orthopoxvirus infection, primary screen, cell-based, single point | Vaccinia-infected cells, mCherry/Venus stage reporter fluorescence; hits give low values; some inactives read as strong as hits | activity change (mCherry), % (concentration not given with the values) | actives 0.01% (n = 89,000);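 active means mCherry past -33% and 40 or more points under the early reporter, replicates agreeing; inconclusive means past -33% without that gap or agreement; tested in A549 cells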;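 further: scaled between vehicle wells and reference inhibitor wells; 23 nL library stock went into each well; one replicate is shown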
Vaccinia inh Venus: further read-out of Vaccinia inh, marked with its call; activity change (Venus), %; measured here: Venus reporter, other viral stage;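 negative = less Venus signal; first of two replicates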
* marks the source's active call; other numbers are inactive results; ? = inconclusive; . = not tested or not shown. A portion of the library (hit frequency here may not be typical).

SMILES	Vaccinia inh	Vaccinia inh Venus
CO[C@@H]1CN(C)C(=O)c2cc(NS(=O)(=O)c3ccc(Oc4ccccc4)cc3)ccc2OC[C@H](C)NC[C@@H]1C	-27	-17
COC(=O)C[C@H]1C[C@H]2c3cc(N)ccc3O[C@H]2[C@H](CO)O1	13	16
COc1ccc(S(=O)(=O)N(C)C[C@H]2Oc3ccc(NC(=O)C4CCCCC4)cc3CC(=O)N([C@@H](C)CO)C[C@@H]2C)cc1	-11	-17
COc1ccc(NC(=O)N(C)C[C@@H]2Oc3cc(-c4cccc(C(=O)N(C)C)c4)ccc3S(=O)(=O)N([C@H](C)CO)C[C@@H]2C)cc1	6	1
COc1ccc2c3c(n(C)c2c1)[C@@H](CO)N(C(=O)NC(C)C)CC31CN(Cc2nccs2)C1	7	-8
COc1cccc(-c2ccc(C3[C@H]4CNC[C@@H]3N4Cc3cc(F)ccc3F)cc2)c1 (stereo partly drawn)	?	-2
O=C(Nc1ccccc1)C1=C[C@@H](c2ccc(C(F)(F)F)cc2)C[C@@H](OCc2ccc(CO)cc2)O1	-28	-20
Cc1noc(C)c1S(=O)(=O)N(C)C[C@H]1OCCCC[C@H](C)Oc2ccc(NC(=O)Cc3ccccc3)cc2C(=O)N([C@H](C)CO)C[C@H]1C	-5	0
C[C@@H]1CCCCO[C@@H](CN(C)S(=O)(=O)c2cccs2)[C@H](C)CN([C@H](C)CO)C(=O)c2cc(NS(=O)(=O)c3ccc(F)cc3)ccc2O1	?	.
C[C@H]1CN([C@@H](C)CO)C(=O)c2cc(NC(=O)Cc3cn(C)c4ccccc34)ccc2O[C@@H]1CN(C)Cc1ccc(Cl)c(Cl)c1	?	.
C[C@@H]1CN([C@H](C)CO)C(=O)c2cccc(NC(=O)c3ccncc3)c2O[C@@H]1CN(C)Cc1ccncc1	5	13
C[C@H]1CN([C@@H](C)CO)C(=O)Cc2cc(NC(=O)Cc3ccccc3)ccc2O[C@@H]1CN(C)S(C)(=O)=O	6	7
C[C@H]1CN([C@@H](C)CO)C(=O)c2cccc(NS(=O)(=O)c3cn(C)cn3)c2O[C@H]1CN(C)CC1CCCCC1	3	1
C[C@H](CO)N1C[C@H](C)[C@H](CN(C)C(=O)CCN(C)C)OCc2ccccc2-c2ccccc2C1=O	-13	-15
CC(C)NC(=O)N(C)C[C@H]1Oc2ccc(NC(=O)Cc3cn(C)c4ccccc34)cc2CC(=O)N([C@H](C)CO)C[C@@H]1C	4	5
C[C@@H]1CN([C@@H](C)CO)C(=O)Cc2cc(NS(=O)(=O)c3ccccc3)ccc2O[C@@H]1CN(C)C(=O)Nc1ccc(F)cc1	7	-3
COCC#Cc1cnc2c(c1)C(=O)N([C@@H](C)CO)C[C@H](C)[C@@H](CN(C)S(=O)(=O)c1ccccc1)O2	4	9
C[C@@H]1CN([C@@H](C)CO)S(=O)(=O)c2ccc(C3=CCCC3)cc2O[C@@H]1CN(C)Cc1ccccn1	-11	-20
O=C(NCC1CC1)[C@@H]1[C@@H](CO)[C@@H]2Cn3c(ccc(-c4ccccc4F)c3=O)[C@H]1N2Cc1cncnc1	-1	2
C[C@@H]1CCCCO[C@@H](CN(C)C(=O)C2CCCCC2)[C@H](C)CN([C@H](C)CO)C(=O)c2cc(NC(=O)Nc3ccccc3)ccc2O1	-31	-31
CCNC(=O)C[C@@H]1CC[C@@H]2[C@H](COC[C@@H](O)CN2C(=O)Nc2cccc(OC)c2)O1	20	10
CCCC#Cc1ccc2c(c1)O[C@H](CN(C)C(=O)c1cccnc1)[C@@H](C)CN([C@@H](C)CO)S2(=O)=O	4	1
CCC(=O)N(C)C[C@@H]1Oc2cc(C#CCC(C)C)ccc2S(=O)(=O)N([C@H](C)CO)C[C@@H]1C	-16	-17
C[C@H]1CN([C@@H](C)CO)C(=O)c2cccc(NC(=O)c3nc4ccccc4s3)c2O[C@@H]1CN(C)Cc1ccc(Oc2ccccc2)cc1	-14	-18
CCCNC(=O)[C@@H]1[C@@H](CO)[C@@H]2Cn3c(cccc3=O)[C@@H]2N1CC1CCCC1	2	24
CO[C@H]1CN(C)C(=O)c2cc(NS(C)(=O)=O)ccc2OC[C@@H](C)N(CC2CCOCC2)C[C@@H]1C	14	1
CCC(=O)N1C[C@@H](O)COC[C@@H]2O[C@@H](CC(=O)NCc3ccccc3Cl)CC[C@H]21	8	8
CO[C@@H]1CN(C)C(=O)c2ccc(NC(=O)C3CCC3)cc2OC[C@H](C)NC[C@H]1C	4	5
O=C(C[C@@H]1CC[C@@H](NC(=O)Nc2ccc3c(c2)OCO3)[C@@H](CO)O1)NCc1ccc2c(c1)OCO2	13	8
Cn1cnc(S(=O)(=O)N2C[C@@H](O)COC[C@H]3O[C@H](CC(=O)N4CCN(c5ccccc5)CC4)CC[C@@H]32)c1	10	9
Cc1ccc(S(=O)(=O)Nc2cccc3c2O[C@@H](CN(C)CC2CCCCC2)[C@H](C)CN([C@H](C)CO)C3=O)cc1	-1	6
C[C@H](CO)N1C[C@H](C)[C@H](CN(C)C(=O)NC2CCCCC2)Oc2ccc(NS(=O)(=O)c3ccccc3)cc2CC1=O	-11	-6
CCNC(=O)[C@@H]1[C@@H](CO)[C@@H]2Cn3c(ccc(C4=CCCC4)c3=O)[C@H]1N2C(=O)C1CC1	3	4
COc1ccc(NC(=O)N(C)C[C@@H]2Oc3c(NC(=O)c4cc(C)nn4C)cccc3C(=O)N([C@H](C)CO)C[C@@H]2C)cc1	25	10
CCCC#Cc1ccc2c(c1)O[C@H](CN(C)C(=O)C1CCC1)[C@H](C)CN([C@@H](C)CO)S2(=O)=O	?	.
O=C(C[C@@H]1CC[C@@H]2[C@H](COC[C@@H](O)CN2Cc2cccc(Cl)c2)O1)N1CCOCC1	8	2
COc1cccc(NC(=O)N[C@H]2CC[C@@H](CC(=O)N3CCOCC3)O[C@H]2CO)c1	17	7
C[C@@H]1CN([C@H](C)CO)C(=O)c2cccc(NC(=O)Nc3ccc(C(F)(F)F)cc3)c2O[C@H]1CN(C)S(=O)(=O)c1cn(C)cn1	0	0
CC(C)c1cn(CC[C@H]2CC[C@H](NS(=O)(=O)c3ccc(Cl)cc3)[C@H](CO)O2)nn1	2	1
O=C1CN(Cc2ccccc2)C[C@H]2[C@@H](c3ccc(Br)cc3)[C@@H](CO)N12	32	7

Eleven consecutive compounds out of the list so far, for reference:
SMILES	Vaccinia inh	Vaccinia inh Venus
CCC(=O)N1C[C@@H](O)COC[C@@H]2O[C@@H](CC(=O)NCc3ccccc3Cl)CC[C@H]21	8	8
CO[C@@H]1CN(C)C(=O)c2ccc(NC(=O)C3CCC3)cc2OC[C@H](C)NC[C@H]1C	4	5
O=C(C[C@@H]1CC[C@@H](NC(=O)Nc2ccc3c(c2)OCO3)[C@@H](CO)O1)NCc1ccc2c(c1)OCO2	13	8
Cn1cnc(S(=O)(=O)N2C[C@@H](O)COC[C@H]3O[C@H](CC(=O)N4CCN(c5ccccc5)CC4)CC[C@@H]32)c1	10	9
Cc1ccc(S(=O)(=O)Nc2cccc3c2O[C@@H](CN(C)CC2CCCCC2)[C@H](C)CN([C@H](C)CO)C3=O)cc1	-1	6
C[C@H](CO)N1C[C@H](C)[C@H](CN(C)C(=O)NC2CCCCC2)Oc2ccc(NS(=O)(=O)c3ccccc3)cc2CC1=O	-11	-6
CCNC(=O)[C@@H]1[C@@H](CO)[C@@H]2Cn3c(ccc(C4=CCCC4)c3=O)[C@H]1N2C(=O)C1CC1	3	4
COc1ccc(NC(=O)N(C)C[C@@H]2Oc3c(NC(=O)c4cc(C)nn4C)cccc3C(=O)N([C@H](C)CO)C[C@@H]2C)cc1	25	10
CCCC#Cc1ccc2c(c1)O[C@H](CN(C)C(=O)C1CCC1)[C@H](C)CN([C@@H](C)CO)S2(=O)=O	?	.
O=C(C[C@@H]1CC[C@@H]2[C@H](COC[C@@H](O)CN2Cc2cccc(Cl)c2)O1)N1CCOCC1	8	2
COc1cccc(NC(=O)N[C@H]2CC[C@@H](CC(=O)N3CCOCC3)O[C@H]2CO)c1	17	7

(cont.)
SMILES	Vaccinia inh	Vaccinia inh Venus
C[C@H](CO)N1C[C@H](C)[C@@H](CN(C)C(=O)C2CCCCC2)Oc2ncc(Br)cc2C1=O	6	5
C[C@H](CO)N1C[C@H](C)[C@@H](CN(C)C(=O)Cc2ccccc2)Oc2ncc(-c3cncnc3)cc2C1=O	14	10
CCC(=O)N1CC2(C1)CN(S(C)(=O)=O)[C@@H](CO)c1[nH]c3cc(OC)ccc3c12	19	13
C[C@@H]1CN([C@@H](C)CO)C(=O)c2cc(NS(=O)(=O)c3ccc(Cl)cc3)ccc2O[C@@H]1CN(C)Cc1ccc(Oc2ccccc2)cc1	?	.
C[C@H]1CN([C@@H](C)CO)C(=O)c2cc(NS(=O)(=O)c3cccs3)ccc2O[C@@H]1CN(C)Cc1ccc(Cl)c(Cl)c1	-17	-9
COc1ccc(-c2ccc([C@H]3[C@H]4CN(Cc5ccc(F)cc5)CC(=O)N4[C@H]3CO)cc2)cc1	-5	-8
C[C@@H]1CN([C@H](C)CO)C(=O)c2cc(-c3ccc(F)cc3)cnc2O[C@@H]1CN(C)C(=O)Cc1ccccc1	1	-5
C[C@@H]1CCCCO[C@@H](CN(C)C(=O)NC2CCCCC2)[C@@H](C)CN([C@H](C)CO)C(=O)c2cc(NC(=O)NC3CCCCC3)ccc2O1	8	2
COc1ccc(-c2ccc3n(c2=O)C[C@H]2[C@H](CO)[C@@H](C(=O)NCCN4CCCCC4)N(C)[C@@H]32)cc1	26	15
O=C(C[C@@H]1CC[C@@H](NC(=O)CC2CC2)[C@H](CO)O1)NCc1ccccc1	3	4
COc1ccc2c3c(n(C)c2c1)[C@@H](CO)N(Cc1ccccc1F)CC31CN(C(=O)C2CCCC2)C1	-32	-23
Cc1ccccc1S(=O)(=O)N1C[C@H](O)COC[C@@H]2O[C@@H](CC(=O)O)CC[C@H]21	9	6
Cc1ccc(S(=O)(=O)NCC[C@H]2CC[C@@H](NC(=O)C3CCOCC3)[C@H](CO)O2)cc1	2	1
C[C@H]1CN([C@@H](C)CO)C(=O)c2cc(NC(=O)Nc3ccc(F)cc3)ccc2O[C@H]1CN(C)CC1CCCCC1	-9	-9
C[C@@H]1CN([C@@H](C)CO)C(=O)Cc2cc(NC(=O)C3CCCCC3)ccc2O[C@@H]1CN(C)Cc1ccccc1	-29	-32
C[C@@H]1CN([C@H](C)CO)C(=O)c2cccc(NC(=O)c3ccc(-c4nccs4)cc3)c2O[C@@H]1CN(C)Cc1ccc(Cl)c(Cl)c1	?	.
COCC(=O)Nc1ccc2c(c1)[C@@H]1C[C@H](CC(=O)NCc3ccncc3)O[C@H](CO)[C@@H]1O2	2	5
CC(C)NC(=O)N(C)C[C@@H]1Oc2ncc(C3=CCCCC3)cc2C(=O)N([C@H](C)CO)C[C@H]1C	15	4
O=C(N[C@H]1C=C[C@@H](CC(=O)N2CCCCC2)O[C@@H]1CO)c1ccc2c(c1)OCO2	8	10
C[C@H](O)C#Cc1ccc2c(c1)O[C@@H](CN(C)C(=O)C1CCC1)[C@H](C)CN([C@@H](C)CO)S2(=O)=O	-6	-5
CCC(=O)N1CC(=O)N2[C@@H](CO)[C@H](c3ccc(C#Cc4cccc(F)c4)cc3)[C@@H]2C1	23	6
CC(C)CC#Cc1ccc2c(c1)O[C@H](CN(C)C(=O)Cc1ccncc1)[C@@H](C)CN([C@H](C)CO)S2(=O)=O	-28	-23
COc1ccc2c3c(n(C)c2c1)[C@H](CO)N(Cc1ccccc1OC)CC31CN(CC2CC2)C1	-19	-14
C[C@H](CO)N1C[C@H](C)[C@H](CN(C)CC2CC2)Oc2cc(C#Cc3ccccc3)ccc2S1(=O)=O	-10	-18
CN1C(=O)c2cc(NC(=O)NC3CCCC3)ccc2OC[C@H]2O[C@H](CC(=O)NCC3CC3)CC[C@@H]21	-1	-6
O=C(c1cccnc1)N1C[C@@H]2[C@H](c3ccccc31)[C@@H](CO)N2Cc1ccc2c(c1)OCO2	4	1
C/C=C/c1ccc2c(c1)O[C@@H](CN(C)CC1CCCC1)[C@H](C)CN([C@@H](C)CO)S2(=O)=O	-8	-13
CC(C)NC(=O)N1[C@@H](C#N)[C@@H](c2ccc(C#CC3CCCCC3)cc2)[C@@H]1CO	1	-3
C[C@H](CO)N1C[C@H](C)[C@H](CN(C)C(=O)Cc2ccccc2)OCCCC[C@H](C)Oc2ccc(NC(=O)c3ccccc3)cc2C1=O	-19	-19
C[C@@H]1CN([C@@H](C)CO)C(=O)c2cc(NC(=O)Nc3ccc(F)cc3)ccc2O[C@@H](C)CCCCO[C@H]1CN(C)C(=O)Nc1cccc2ccccc12	13	3
CCC(=O)N1CC(=O)N2[C@H](C1)[C@H](c1ccc(-c3cccnc3)cc1)[C@@H]2CO	26	10
C[C@H]1CN([C@@H](C)CO)C(=O)c2cccc(NC(=O)c3ccncc3)c2O[C@@H]1CN(C)Cc1ccc(C(=O)O)cc1	25	6
C[C@@H]1CN([C@@H](C)CO)C(=O)c2cc(C#CC3(O)CCCC3)cnc2O[C@H]1CN(C)Cc1ccccn1	11	4
C[C@@H](NC(=O)C[C@@H]1CC[C@@H](NC(=O)C2CCOCC2)[C@H](CO)O1)c1ccccc1	3	0
C[C@@H]1CN([C@@H](C)CO)C(=O)c2cc(-c3ccccc3)cnc2O[C@H]1CN(C)C(=O)C1CCCCC1	3	-5
C[C@H](CO)N1C[C@H](C)[C@@H](CN(C)C)Oc2c(NC(=O)Nc3ccc(C(F)(F)F)cc3)cccc2C1=O	2	7
O=C(C1CCCCC1)N1[C@H](CO)[C@H]2c3ccccc3NC[C@H]21	-9	-5
C[C@@H]1CN([C@@H](C)CO)C(=O)Cc2cc(NC(=O)CCN3CCOCC3)ccc2O[C@H]1CN(C)Cc1ccc(C(=O)Nc2ccccc2N)cc1	-1	-2
COc1ccc(S(=O)(=O)Nc2ccc3c(c2)CC(=O)N([C@@H](C)CO)C[C@H](C)[C@H](CN(C)Cc2ccccc2)O3)cc1	-28	-15
C[C@@H]1CN([C@@H](C)CO)C(=O)c2cc(C#CC(C)(C)O)cnc2O[C@@H]1CN(C)Cc1cncnc1	8	5

Compound activity from PubChem BioAssay.
